Bioassay records as filed in PubChem BioAssay.
NPYLR7 ag: agonists of mosquito NPYLR7 receptor, primary screen, cell-based, Aedes aegypti, calcium fluorescence, mosquito biting behavior | HEK293T NPYLR7/Galpha15, GCaMP6s calcium fluorescence | activation, % at 10 µM | hit rate 0.15% among 270,000; in the data active = activation above about 40%;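 note: 0% = vehicle and 100% = reference agonist at the receptor; some compounds past the cut are filed as inactive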
NPYLR7 ag max-min: further read-out of NPYLR7 ag, marked with its call; activation, %; measured here: Max-Min RFU normalised activation; some inactives read as strong as hits;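 span of the calcium signal over five minutes; 0% = vehicle and 100% = native peptide agonist; compound fluorescence can raise it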
The depositor's hits bear a star.

Start of the listing, in advance, four compounds:
Structure | NPYLR7 ag | NPYLR7 ag max-min
CC(C)S(=O)(=O)NC(=O)C1(C)CCN1C(=O)Cc1ccc(Cl)cc1Cl (stereo not drawn) | 8 | 4
COc1cccc(C(=O)NC(=NCCCN2CCOCC2)OC(C)C)c1 | 0 | 7
C=CCn1c(N)c(C(=O)N2CCN(C)CC2)sc1=S | 12 | 11
COc1ccc(NC(=O)Cn2nc(SC)c(S(=O)(=O)c3ccc(C)cc3)c2N)cc1Cl | 5 | -7

The whole of this part, repeating the preview:
Structure | NPYLR7 ag | NPYLR7 ag max-min
CC(C)S(=O)(=O)NC(=O)C1(C)CCN1C(=O)Cc1ccc(Cl)cc1Cl (stereo not drawn) | 8 | 4
COc1cccc(C(=O)NC(=NCCCN2CCOCC2)OC(C)C)c1 | 0 | 7
C=CCn1c(N)c(C(=O)N2CCN(C)CC2)sc1=S | 12 | 11
COc1ccc(NC(=O)Cn2nc(SC)c(S(=O)(=O)c3ccc(C)cc3)c2N)cc1Cl | 5 | -7
O=C(Cc1cccs1)N1CCC(n2cnc3cc(C(F)(F)F)ccc32)CC1 | 25 | 12
COc1cc(C)c(S(=O)(=O)NCc2ccco2)cc1C(C)C | 1 | 0
Cc1[nH]nc(C(=O)N2CCCC2Cc2cccc3ccccc23)c1Br (stereo not drawn) | 9 | 0
O=C(c1cccc(OC(F)F)c1)N1CCOC(COCc2cccc(C(F)(F)F)c2)C1 (stereo not drawn) | 2 | 0
CC(=O)Nc1ccc(CN(C)c2c(C)nc3ccc(C(=O)N4CCN(C(=O)c5ccco5)CC4)cn23)cc1 | -6 | -12
CN=C1SCC(O)(c2cccc([N+](=O)[O-])c2)N1C (stereo not drawn) | -2 | -3
Fc1cc(Br)ccc1Nc1nc2ccccc2n2cnnc12 | -4 | -3
COc1ccc(-n2ccnc2CN2CCC(C(=O)N3CCCC3)CC2)cc1 | 2 | 0
CCC(C)C(NC(=O)Nc1ccc(Cl)cc1Cl)C(=O)Nc1nnc(-c2cccc(Br)c2)s1 (stereo not drawn) | 0 | 12
Cc1cc(C)c(NC=C2C(=O)OC(C)(C)OC2=O)c(C)c1 | 6 | 6
O=C(NCCC(F)(F)F)NC1CCC2(CC1)OCCO2 | 8 | 5
O=C(c1ccc(C(F)(F)F)cc1)N1CCN(c2ccccc2O)CC1 | -2 | -2
Cc1ccc(S(=O)(=O)N2CCN(C(C(=O)NC3CC3)c3ccccc3)CC2)c(C)c1 (stereo not drawn) | -5 | -8
CC(C)N(CC(=O)N(CCc1c[nH]c2ccccc12)Cc1ccc(F)cc1)C(=O)c1ccc(Cl)cc1 | -1 | -7
Cc1nc(C)c(-c2cccc3[nH]ccc23)s1 | 6 | 3
CCCNC(=O)Cn1nc2c(c1NC(=O)c1ccccc1SCC)CSC2 | -4 | 4
Cc1ccc(C(c2c(O)cc(C)n(Cc3cccnc3)c2=O)N2CCN(c3ccc(F)cc3)CC2)cc1 (stereo not drawn) | 10 | 1
Cc1cn2c3c(=O)n(CC(C)C)c(=O)n(C)c3nc2n1C(C)c1ccccc1 (stereo not drawn) | -11 | -10
CCCn1c(C)cn2c3c(=O)n(CC(=O)c4ccccc4)c(=O)n(C)c3nc12 | -1 | 4
Cc1cc(-c2ccccc2)[n+]2cc(Br)ccc2n1 | -6 | -12
CNCC(O)CN(c1ccccc1)c1ccccc1 (stereo not drawn) | -1 | 0
COc1cc(=O)n(-c2ccc(F)cc2)nc1C(=O)Nc1ccc(O)cc1 | 7 | 2
COc1ccc(-n2cc(CNCc3n[nH]c4c3CCC4)c(-c3ccccc3Cl)n2)cc1 | -4 | -5
Cc1ccc(Cc2nnc(N3CCOCC3)[nH]c2=O)cc1 | 9 | 5
CCCc1cnc(C)nc1NCC1CCN(C(=O)C2CC2)CC1 | 1 | -3
Cn1ccnc1CN(Cc1cc2c(cc1Cl)OCO2)C1CC1 | 8 | 6
COc1ccc(N2C(=O)C(Oc3ccc(C)cc3C)C2c2cscn2)cc1 (stereo not drawn) | 1 | 12
CC1CC(C)CN(C(=O)Nc2cn(C)c3ccccc23)C1 (stereo not drawn) | 2 | -6
C=CCNc1nc2c(c(=O)[nH]c(=O)n2C)n1CC(=O)OC | -1 | 49
CC1(C(=O)NS(=O)(=O)Cc2ccccc2)CCN1C(=O)CCc1ccccc1 (stereo not drawn) | -1 | -1
O=C(c1ccccc1O)N1CCN(C2CCN(c3ccc(C(F)(F)F)cc3)C2=O)CC1 (stereo not drawn) | 2 | 31
O=c1[nH]c(=O)c2sc3nc(-c4ccncc4)ccc3c2[nH]1 | -7 | -18
CCS(=O)(=O)N1CCc2cc(-c3csc(N)n3)ccc21 | -1 | 0
CCn1cc(NC(=O)Nc2cccc(C)n2)c2ccccc21 | 16 | 6
COCCOc1cccn2c(N(C)CC3CC3)c(C)nc12 | 8 | -3
Cc1nnnn1CCCN1CCC2(C1)CN(C)C(=O)O2 (stereo not drawn) | -3 | -6
Cc1ccc(-n2c(-c3ccccc3)csc2=NC(C)(C)C)cc1 | -15 | -18
Cc1ccc(NC(=O)COc2nc(C)no2)c(Cl)c1 | 10 | 1
CC(C)COCC(O)CN(Cc1cccc(F)c1)CC1CC(c2ccc(Cl)c(Cl)c2)=NO1 (stereo not drawn) | -4 | 2
Cc1ccc(CN(CCN2CCOCC2)CC(O)Cc2ccccc2)o1 (stereo not drawn) | -2 | 6
CCC(=O)N1CCN(c2ccc(Nc3cccc(C)n3)nn2)CC1 | 14 | 5
COc1ccc(CN(CCc2c[nH]c3ccccc23)C(=O)CN(CC(C)C)C(=O)COCc2ccccc2)cc1OC | 15 | 11
O=C(CNCc1ccccc1-n1cncn1)NCc1ccccc1F | 6 | 7
CC(C)C[C@@H]1NC(=O)c2ccccc2N(CC(=O)NC[C@@H]2CCC3C[C@@H]2C3(C)C)C1=O | -1 | 8
CCOC(=O)N(C)c1c(CC)nc2c(OCC(=O)C(C)(C)C)cccn12 | 2 | -8
Cc1cc(Nc2ccc3c(n2)C(=O)N([C@H](C)C(=O)NCCN(C)C)C3)n(C)n1 | 7 | 2
CCNC(=O)c1cncn1-c1cccc(-c2cccc3c2sc2ccccc23)c1 | 4 | 2
CNC(=O)CN1CCN(C(=O)OC(C)(C)C)CC1 | -10 | -16
CC(=O)c1ccc(-n2c(C)ccc2-c2ccccc2)cc1 | 4 | 1
COc1cc(C(C)=NN2CCOCC2)cc(OC)c1OC | -2 | -4
COc1cccc(OC)c1Nc1cccc2c1C(=O)c1ccccc1C2=O | 10 | 8
c1ccc(Cc2nnc3sc(-c4ccc5c(c4)OCO5)nn23)cc1 | -1 | -1
COc1ccc(OC)c(NC(=O)Nc2ccc(Nc3cc(OC)nc(C)n3)cc2)c1 | 12 | 5
Cn1c(=O)c2c(nc(Br)n2Cc2ccc(Br)cc2)n(C)c1=O | -4 | -6
COc1ccc(N2CCN(c3cc(Cl)nc(SCC(=O)NCCc4ccc(OC)c(OC)c4)n3)CC2)cc1 | 23 | 30
CN(CC1CCCN1c1ccc(S(C)(=O)=O)cc1S(C)(=O)=O)c1ccccc1 (stereo not drawn) | -1 | -2

4 records drawn at random from the list so far, as already listed:
Structure | NPYLR7 ag | NPYLR7 ag max-min
COc1ccc(N2CCN(c3cc(Cl)nc(SCC(=O)NCCc4ccc(OC)c(OC)c4)n3)CC2)cc1 | 23 | 30
CN(CC1CCCN1c1ccc(S(C)(=O)=O)cc1S(C)(=O)=O)c1ccccc1 (stereo not drawn) | -1 | -2
COc1ccc(OC)c(NC(=O)Nc2ccc(Nc3cc(OC)nc(C)n3)cc2)c1 | 12 | 5
O=C(CNCc1ccccc1-n1cncn1)NCc1ccccc1F | 6 | 7

More structures:
Structure | NPYLR7 ag | NPYLR7 ag max-min
COC(=O)c1c2c(nc3c1c(-c1cccs1)nn3C1CCS(=O)(=O)C1)CCC2 (stereo not drawn) | 12 | 4
COC(=O)c1cnn(-c2cc(Oc3cccc(C)c3)nc(C)n2)c1C | -4 | -3
O=c1cc(CN2CCCCC2)nc2sc3c(n12)CCCC3 | 7 | 11
CN1CCC=C(Cn2nccc2NC(=O)Cc2ccc(F)cc2)C1 | 0 | -3
CCOCCOc1nc(-c2ccccc2C)n(-c2ccc(NC(=O)/C=C/c3ccc([N+](=O)[O-])cc3)cc2)n1 | 1 | 1
CC(=O)Nc1ccc(Nc2cc(-n3ccnc3)ncn2)cc1 | -18 | -20
CC(=O)N1CCN(c2cc3c(cc2F)c(=O)c(C(=O)Nc2nc(C)c(C)s2)cn3C2CC2)CC1 | 3 | 8
Cc1nc2c3ccccc3[nH]c(=O)n2n1 | -1 | -3
CCOC(=O)C1CCCN(C(=O)c2cc(-c3ccccc3F)nc3cc(-c4ccccc4)nn23)C1 (stereo not drawn) | -6 | 14
CN(C)CCCN(C(=O)c1cc(Cl)sc1Cl)c1nc2ccccc2s1 | 0 | -3
Cc1ccc(CNC(=O)C2CCN(c3ncnc4c3sc3ncccc34)CC2)cc1 | -2 | -1
C=CCn1c(NN=Cc2ccc(O)c(OCC)c2)nc2c1c(=O)n(C)c(=O)n2C | -18 | -17
O=C1CNC(=O)N1CCN1CCCCC1Cn1cccn1 (stereo not drawn) | 2 | 19
Cc1cccc(C=c2sc(=CC(=O)c3ccco3)n(CC(=O)NC3CCCC3)c2=O)c1 | 2 | 7
Cc1ccc(C)n1-c1ccc(C(=O)NNC2=NCCC2)s1 | 3 | 0
O=C(N[C@@H]1CCCCC1NC(=O)C1CCCN(C(=O)/C=C/c2ccccc2)C1)c1ccccc1 (stereo partly drawn) | -9 | -5
CC(CN1CCOCC1)NCc1csc(-c2cnccn2)n1 (stereo not drawn) | 6 | -2
COc1ncccc1-c1ccc(OC(C)C(=O)O)c(Cl)c1 (stereo not drawn) | -19 | -18
Cc1nn(CN2CCN(S(=O)(=O)c3ccc(Cl)cc3)CC2)c(=S)s1 | -4 | -6
CC(C)(C)CC(=O)N1CCC2(CC1)NC(=O)c1cc(F)c(F)cc1N2 | 1 | 12
CCOC(=O)NC1CCCN(C(=O)c2ccc3nc(C)c(C)nc3c2)C1 (stereo not drawn) | 9 | 7
Cc1ccc(CN(Cc2ccc(F)cc2)CC(O)COC(C)C)c(C)c1 (stereo not drawn) | 19 | 19
COc1cc(CNC(=O)CCl)cc(OC)c1OC | 4 | -2
COc1ccc2nc(-n3nc(C)cc3NC(=O)c3cccs3)sc2c1 | -7 | -14
NC(=S)NC1=CN(c2ccccc2)N=C(c2ccc([N+](=O)[O-])cc2)N=C1 | 1 | -2
O=C(CN1C(=O)S/C(=C\c2ccccc2)C1=O)Nc1nccs1 | -9 | -12
CC(C)N(C)c1ccc(NC(=O)C(C)n2cnc3ccccc32)cc1F (stereo not drawn) | -7 | -9
Fc1ccc(N2CCN(c3nc(-c4ccc(Oc5ccccc5)cc4)nc4ccccc34)CC2)cc1 | 4 | 4
Cc1nc(CCC(=O)N2CCC3(CCCN(Cc4ccccc4F)C3)C2)n[nH]1 (stereo not drawn) | 0 | -2
CC(=O)N1CCC(N2CCC(C3CCN(c4ncccn4)CC3)C2)CC1 (stereo not drawn) | 22 | 15
CCCc1c(C)nn(-c2ccc(C(=O)N3CCC(O)(c4ccccc4)CC3)cc2)c1C | 2 | -2
CCN(CC(=O)Nc1cc(C(C)(C)C)nn1-c1ccc(Cl)cc1)C(=O)Nc1ccccc1C(F)(F)F | -3 | -3
COc1ccc(CNC(=O)NC(c2ccccc2)C2CC2)cc1 (stereo not drawn) | -3 | -6
Fc1ccccc1-n1ncc2c1CCCC2NCc1ccc2nsnc2c1 (stereo not drawn) | 9 | 12
Cc1c(Br)c(C(F)(F)F)nn1CC(=O)NCCc1ccccc1 | -2 | -13
Cc1cc(O)c(C2OC(=O)c3ccccc32)c(=O)[nH]1 (stereo not drawn) | -2 | -4
COc1cc(-c2nc3ccccn3c2NC(C)(C)CC(C)(C)C)ccc1OS(=O)(=O)c1ccccc1 | -6 | 0
CCOC(=NCCN1CCCCC1)NC(=O)c1ccc(F)cc1 | -6 | -1
CN(CCC#N)C(=O)CN1CCN(Cc2cscn2)CC1 | 6 | 3
COc1ccc(C(=O)N2CCN(C3CCN(c4nc(C)c5cc(F)ccc5n4)CC3)CC2)cc1 | -2 | -9
COc1ccc(CCN2CCCC(CN(C)C(=O)CCCn3cncn3)C2)cc1 (stereo not drawn) | -2 | -5
Cc1ncc(CO)c2c1Oc1nc(-c3ccc(F)cc3)nc(SCC(=O)Nc3ccccc3)c1C2 | 12 | 15
Cn1c(=O)c2c(nc(N3CCCC3)n2CCSc2nc3ccccc3s2)n(C)c1=O | 0 | 8
Cc1cnc2c(C(=O)NCc3snnc3C(C)C)cnn2c1 | 2 | 0
CN(Cc1ccc2ncccc2c1)C(=O)C1CCC(=O)N(CCCN2CCCC2=O)C1 (stereo not drawn) | 16 | 7
Cc1ccsc1C(=O)N1CCC1(C)C(=O)Nc1cccc(C#N)c1 (stereo not drawn) | 2 | 1
O=C(Cn1cccnc1=O)Nc1ccc(Oc2ccccc2Cl)cc1 | 7 | 1
COc1ccc(N2CCN(C(=O)C3CC=CCC3C(=O)NCCc3ccc(S(N)(=O)=O)cc3)CC2)cc1 (stereo not drawn) | -5 | -13
CCCCc1ccc(-n2cc(CN3CCCC(O)(CO)CC3)cn2)cc1 (stereo not drawn) | -1 | -8
OC(CNC12CC3CC(CC(C3)C1)C2)COc1ccccc1 (stereo not drawn) | -4 | -16

Looked up above:
Under NPYLR7 ag max-min, COc1ccc(CCN2CCCC(CN(C)C(=O)CCCn3cncn3)C2)cc1 (stereo not drawn) shows -5
Under NPYLR7 ag max-min, CCCCc1ccc(-n2cc(CN3CCCC(O)(CO)CC3)cn2)cc1 (stereo not drawn) shows -8

These rows are one share of the data; rates above refer to the full screens.
